Assay outcomes from PubChem BioAssay.
eIF4H inh: inhibitors of RNA binding by human eIF4H; AID 2012; inhibition, % at 35 µM; eIF4H fluorescence polarization binding assay; Q15056; hit rate 0.94% among 290,000;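 active = 50% or more with normal probe brightness, or confirmed in later tests; inconclusive = above 50% with abnormal brightness, or retests that disagree; inactive = below 50% or failed in later tests; about a fifth of its hits are not listed in these tables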;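 also: calls also rest on retests at 20 µM and on dose response follow-up; 0% = protein and probe with vehicle and 100% = probe without protein; strong numbers were not always called active; many hits fall short of the cut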
Rce1 inh: blocks yeast Ras-converting enzyme; Q03530; yeast membranes, quenched prenylated peptide cleavage fluorescence; calls only; hit rate 0.27% among 290,000; AID 2563;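 active = fall in fluorescence gain of 50% or more versus controls, with final raw signal at or below 3038400; inconclusive = same 50% fall but final raw signal above 3038400; inactive = fall in fluorescence gain under 50%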;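 also: plate controls were neutral control wells for no effect and wells lacking membranes for full effect; tested at 10 µM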
Target sequence (Q03530 whole entry, looked up): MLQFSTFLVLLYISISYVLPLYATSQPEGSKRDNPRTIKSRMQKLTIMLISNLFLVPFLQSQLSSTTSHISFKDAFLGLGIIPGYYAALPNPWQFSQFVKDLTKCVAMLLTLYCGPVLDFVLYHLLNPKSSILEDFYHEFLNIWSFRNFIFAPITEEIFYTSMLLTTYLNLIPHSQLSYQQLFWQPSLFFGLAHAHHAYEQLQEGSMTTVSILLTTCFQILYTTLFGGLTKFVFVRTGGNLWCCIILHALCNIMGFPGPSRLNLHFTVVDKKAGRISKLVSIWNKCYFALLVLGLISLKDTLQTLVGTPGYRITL
Yeast UUG start: alters start codon recognition fidelity in yeast | S. cerevisiae UUG-firefly luciferase reporter, luminescence/redox ratio | activity score, % at 18.7 µM | hit rate 0.13% among 350,000;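 active = replicate mean at a twofold rise or more, about +100% in these data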;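 also: firefly luciferase made from a UUG start codon reports start codon fidelity; reporter light over untreated wells divided by growth signal over untreated wells; some hits fall short of that in this replicate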
CSC inhib: cancer stem cell inhibition | inhibition, % at 7.5 µM | hit rate 1.1% among 300,000 | cancer stem cell-like cells viability, luminescence;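 active = mean at 75% or more and at least half the replicates too; inconclusive = mean and replicates disagree; tested in HMLE shEcad cells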;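 also: 0% = median of negative and 100% = median of positive control wells; the first replicate is given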
HIV Env fusion: inhibitors of HIV Env-mediated cell fusion | inhibition, % at 12.3 µM | hit rate 1.1% among 360,000 | HeLa-JRFL Env/CEM21 cell fusion, luciferase;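 active = mean replicate inhibition score of at least 50 and every replicate individually at or above 50; inconclusive = only one of the two criteria met; inactive = mean below 50 and not all replicates reaching 50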;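 also: 0% = plate neutral controls and 100% = maraviroc near 300 nM; one replicate is shown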
MT1-MMP act inh: inhibitors of human MT1-MMP activation; hit rate 0.061% among 360,000; GFP/RFP ratio change, % at 20 µM; HT1080 RFP-PRO-GFP cells, GFP/RFP ratio fluorescence, overnight; percent of plate control window, DMSO zero; P50281; AID 651647;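 active = GFP/RFP ratio change of at least 30% with cell ATP level not reduced by more than half and red fluorescence within 50% of control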; also: strong numbers were not always called active
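Material – HT1080 RFP-PRO-GFP cells · Control set – DMSO wells and RFP-L50D-GFP cells · Incubation – overnight cell settling, then overnight compound exposure, 37 °C, 5% CO2 · Compound dosing – single-point 20 µM compound, 1% DMSO · Read-out – GFP/RFP fluorescence ratio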
PABP polyA inh: PABP-poly(A) binding inhibition | hit rate 1% among 290,000 | inhibition, % at 35 µM | P11940 | PABP-poly(A) RNA binding, fluorescence polarization;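 active = 50% or more with normal probe brightness, or confirmed in later tests; inconclusive = above 50% with abnormal brightness, or retests that disagree; inactive = below 50% or failed in later tests; about a fifth of its hits are not listed in these tables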;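 also: calls also rest on retests at 20 µM and on dose response follow-up; controls were probe without protein and protein plus probe with vehicle; some compounds called inactive have numbers as strong as hits; many hits fall short of the cut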
Target sequence (P11940 whole entry, looked up): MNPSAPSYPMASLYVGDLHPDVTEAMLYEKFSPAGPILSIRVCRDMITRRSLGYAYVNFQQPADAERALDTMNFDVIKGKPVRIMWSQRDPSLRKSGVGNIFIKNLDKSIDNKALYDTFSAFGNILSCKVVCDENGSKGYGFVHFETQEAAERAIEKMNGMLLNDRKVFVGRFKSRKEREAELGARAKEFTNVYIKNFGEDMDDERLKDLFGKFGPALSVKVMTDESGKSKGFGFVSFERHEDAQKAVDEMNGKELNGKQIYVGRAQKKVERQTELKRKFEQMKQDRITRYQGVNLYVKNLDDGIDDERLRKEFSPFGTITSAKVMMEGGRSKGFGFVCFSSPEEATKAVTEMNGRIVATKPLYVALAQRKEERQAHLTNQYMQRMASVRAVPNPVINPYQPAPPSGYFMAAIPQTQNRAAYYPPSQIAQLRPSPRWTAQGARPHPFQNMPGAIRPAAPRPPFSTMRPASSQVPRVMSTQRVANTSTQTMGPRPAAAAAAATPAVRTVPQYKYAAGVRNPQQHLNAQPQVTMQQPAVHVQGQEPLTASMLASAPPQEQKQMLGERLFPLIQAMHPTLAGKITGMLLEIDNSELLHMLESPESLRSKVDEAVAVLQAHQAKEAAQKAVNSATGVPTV
eIF4H inh retest: further read-out of eIF4H inh, marked with its call; inhibition, %; compound at 20 µM; confirmation average;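 mean of two retest wells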
PABP polyA inh retest: also measured in PABP polyA inh; calls as there; inhibition, %; compound at 20 µM; confirmation repeats;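 mean of two retest wells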
MT1-MMP act inh RFP: also measured in MT1-MMP act inh; calls as there; RFP signal change, %; measured here: RFP expression control read;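 0 = vehicle wells; hits needed this value within 50% of zero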
An asterisk follows results filed as active; i = inactive; ? = inconclusive; . = no result given.

SMILES | eIF4H inh | Rce1 inh | Yeast UUG start | CSC inhib | HIV Env fusion | MT1-MMP act inh | MT1-MMP act inh RFP | PABP polyA inh | others
COc1ccc(-c2c(C)n([O-])c3c([n+]2=O)CCCC3)c(OC)c1 | 1 | i | 28 | -2 | . | 1 | 1 | 7
COc1ccccc1C(=O)COC(=O)CNS(=O)(=O)c1ccc(C)c(C)c1 | . | i | -12 | -13 | -2 | 3 | 1 | .
C=CCn1c(SCC(=O)NCCC2=CCCCC2)nc2ccc(Cl)cc2c1=O | 8 | i | 22 | 2 | 63* | -5 | 0 | -3
CCOc1ccc(C2C(C(=O)OC)=C(C)N=C3SCCC(=O)N32)cc1OCC (centres undefined) | 2 | i | -21 | -4 | . | 3 | 3 | 0
Cc1ccc(-c2ccc(=O)n(CCC(=O)N3CCN(c4cccc(C)c4)C(C)C3)n2)cc1 (centres undefined) | 0 | i | -4 | 14 | 29 | 0 | -2 | -6
CN(C)c1ccc(NC(=O)N2CCOCC2)cc1 | -11 | i | -30 | 4 | -40 | 0 | 6 | 4
COc1ccc(N2CCN(C(=O)c3ccc(Cn4c(=S)[nH]c5ccc(N6CCOCC6)cc5c4=O)cc3)CC2)cc1 | 80 | i | -7 | 46 | 15 | -6 | -21 | 5 | eIF4H inh retest=2;PABP polyA inh retest=6
C=CC(=O)Oc1ccc(N2Cc3ccccc3C2=O)cc1 | . | i | -53 | 14 | . | 2 | -1 | .
COCCn1c(N)c(C(=S)NC(=O)c2cccs2)c(=O)[nH]c1=O | 3 | i | -22 | -12 | 8 | -1 | 6 | 10
Cc1ccc(NC(=O)CN(C)C(=O)Cc2coc3cc(C)c(C)cc23)cc1 | . | . | -5 | . | -30 | 0 | 3 | .
Cc1cc(SCC(=O)Nc2ncc(Cl)cc2Cl)nc2ccccc12 | 3 | i | 7 | 11 | 9 | -5 | -2 | -8
Cc1cccc(NC(=O)N2CCCc3ccccc32)c1C | -3 | i | -20 | -16 | -23 | -3 | 4 | -5
Cn1c(SCC2CCCO2)nnc1-c1ccc([N+](=O)[O-])cc1 (centres undefined) | 5 | i | . | 4 | -7 | 1 | -1 | 12
COc1ccc(CN2C(=O)c3cccnc3C2=O)cc1S(=O)(=O)N1CCCC(C)C1 (centres undefined) | -2 | i | -12 | -6 | 0 | 1 | 8 | -4
CCN(CC)CCCN=C(C)C1=C(O)c2ccccc2C1=O | 4 | i | -15 | -13 | 11 | 2 | 7 | 10
Cc1cc(C(=O)OCC(=O)NCc2ccccc2)c2ccccc2n1 | . | . | -7 | -1 | -3 | 5 | 4 | .
NC(=O)c1c(NC(=O)c2ccc(F)cc2Cl)sc2c1CCC2 | -11 | i | -7 | 0 | -111 | -1 | 3 | 0
O=C(CCCCCNC(=O)N1CCn2c1nc1ccccc12)NCc1ccc(Cl)cc1 | -2 | i | -9 | -22 | 9 | 4 | 1 | -7
Cc1cccc(N2CCN(CC(O)COCc3cccs3)CC2)c1C (centres undefined) | -10 | i | . | 21 | 6 | 1 | 5 | 5
Cc1ccccc1Nc1cc(=O)oc2ccccc12 | -6 | i | 1 | -20 | . | -4 | -9 | 1
CCc1cc(=O)oc2cc(OCC(=O)NCc3ccccn3)ccc12 | 10 | i | -21 | -16 | 2 | 0 | 2 | -1
Cc1cc(C)c(C(=O)Nc2ccc(S(=O)(=O)Nc3onc(C)c3C)cc2)c(C)c1 | -10 | . | 0 | . | -201 | 2 | -1 | -9
O=C(c1ccccc1)N1CCN(c2n[nH]c(=O)[nH]c2=O)CC1 | 7 | i | . | -6 | -1 | -2 | -1 | 1
COC(=O)Cn1c(C)nc(=O)c(-c2ccccc2)c1C | -3 | i | -6 | . | . | 5 | 4 | 4
c1ccc(-c2ccccc2OCCCN2CCCCCC2)cc1 | 8 | i | -5 | 43 | 5 | -2 | -5 | -12

The list continues:
SMILES | eIF4H inh | Rce1 inh | Yeast UUG start | CSC inhib | HIV Env fusion | MT1-MMP act inh | MT1-MMP act inh RFP | PABP polyA inh | others
CCC(C)c1ccc(NC(=O)c2c([N+](=O)[O-])cnn2CC)cc1 (centres undefined) | 1 | i | -5 | -1 | -17 | 3 | -3 | 10
Cc1ccc(N2C(=O)c3cccc4c(C(=O)O)ccc(c34)C2=O)cc1 | 10 | i | . | -4 | 1 | . | . | -6
COc1cccc(-c2nnc(NC(=O)c3ccc(Cl)s3)o2)c1 | 15 | i | -13 | 51 | 22 | . | . | 8
O=C(c1ccoc1)N1CCN(c2cc(-c3ccccc3)nc3cc(-c4ccc(Br)cc4)nn23)CC1 | . | . | -11 | . | 14 | -3 | -12 | .
COc1ccc(C(=O)O)cc1S(=O)(=O)Nc1ccccc1C(=O)NCc1ccc2c(c1)OCO2 | . | . | -5 | -1 | . | 0 | 3 | .
COc1ccc2nc(C)c3c(c2c1)OC(C)C3 (centres undefined) | -3 | i | . | 8 | . | 4 | 2 | 4
Cc1ccc(-c2cc(-c3ccccc3C)[nH]n2)c(O)c1 | -1 | i | -21 | ? | . | -3 | -1 | -2
CCSc1nnc(CNC(=O)c2ccccc2F)n1-c1ccccc1OC | 5 | i | -16 | -10 | -7 | 0 | 4 | 0
O=C(Nc1ccc(S(=O)(=O)C(F)F)cc1)c1ccc2c(=O)n3c(nc2c1)CCC3 | . | i | . | 3 | . | -17 | -25 | .
O=C(Nc1cc(Cl)ccc1Cl)C1Cc2ccccc2O/C1=N\O (centres undefined) | -9 | i | 4 | -7 | 0 | 6 | 3 | -2
COc1ccc(N(CC(=O)Nc2ccc3c(c2)OCO3)S(=O)(=O)c2ccccc2)cc1 | 2 | i | -10 | -7 | 8 | 2 | 4 | 1
O=C(O)c1cccc(-n2c(/C=C/c3ccccc3)nc3ccccc3c2=O)c1 | -12 | i | -17 | 4 | 17 | -4 | -6 | 6
CCOC(=O)C1=CCN(S(=O)(=O)c2ccc(Cl)cc2)C1c1ccccc1 (centres undefined) | . | . | -10 | . | 24 | 3 | 2 | .
COc1ccc(-c2csc(-c3ccc(O)cc3)n2)cc1 | 2 | i | . | 90* | -125 | 0 | -15 | 0
Cc1cccc(C(=O)NC2CC3CCCC(C2)N3C(=O)Nc2ccccc2)c1 (centres undefined) | -3 | i | -21 | -15 | 3 | 6 | 1 | 0
Cc1cccc(C)c1OCC(O)CN1CCc2ccccc2C1 (centres undefined) | . | i | . | 23 | 23 | -5 | -1 | .
COc1ccc(-n2c(SCC#N)nnc2-c2ccc(NS(=O)(=O)c3ccc(C)cc3)cc2)cc1 | -9 | i | -16 | 0 | . | -13 | -12 | 7
O=S(=O)(c1ccc(Cl)cc1)N1CCNCC1 | -4 | i | . | -5 | 5 | -1 | -1 | 1
O=C(CC(c1ccccc1)c1ccccc1)Nc1ccncc1 | -6 | i | -1 | 6 | -8 | -3 | -15 | -5
COc1cc(/C=N\NC(=O)c2ccc(C)nc2)ccc1OC(=O)c1ccc2c(c1)OCO2 | -7 | i | . | 2 | 2 | -2 | 2 | 6
CN1CCN(C(=O)C23CC4CC(C)(CC(C)(C4)C2)C3)CC1 | -1 | . | 3 | -7 | 17 | 0 | 4 | -6
O=C(/C=C/c1cccc(Cl)c1)c1ccc([N+](=O)[O-])o1 | . | i | -14 | ? | ? | -93 | -27 | .
CCC(C)c1ccccc1N1CC(C(=O)Nc2cc(S(=O)(=O)N3CCOCC3)ccc2OC)CC1=O (centres undefined) | -26 | i | 5 | -15 | 19 | 0 | 2 | 0
CC(C)OCCCNC(=O)Cc1ccc(F)cc1 | -2 | i | -7 | -4 | 6 | 0 | -1 | -14
CC(=O)Nc1c(O)nc(C)[nH]c1=O | -11 | i | . | -14 | -5 | . | . | 11

New compounds follow
SMILES | eIF4H inh | Rce1 inh | Yeast UUG start | CSC inhib | HIV Env fusion | MT1-MMP act inh | MT1-MMP act inh RFP | PABP polyA inh | others
C/C(=N\NC(=O)c1cc(-c2cccc([N+](=O)[O-])c2)n[nH]1)c1ccccc1O | 29 | i | . | 80* | 15 | 14 | 7 | 3
C=CCn1c(=O)/c(=C/c2cc(OC)c(OC)c(OC)c2)s/c1=C(/C#N)c1nc2ccccc2n1C | ? | i | -17 | -3 | -29 | -317 | -14 | ?
COCCSc1nnc(NC(=O)c2ccco2)s1 | 9 | i | -19 | -7 | 10 | -2 | 1 | 10
COc1ccc(/C=C2\Oc3cc(OC(=O)N4CCOCC4)ccc3C2=O)cc1 | -1 | i | . | 1 | 5 | 2 | -9 | 1
O=C(O)/C=C/c1cn(-c2ccccc2)nc1-c1ccccc1 | 1 | i | -4 | -3 | 3 | 3 | -2 | -1
O=C(CSc1nnnn1C1CCCC1)N1CCN(C(=O)c2ccco2)CC1 | -8 | i | 9 | -3 | -53 | 10 | 3 | 11
Cc1ccc(-c2nnc(N(C)C(=O)c3cccnc3)s2)cc1 | -13 | i | . | -12 | -36 | 0 | -5 | -10
O=c1c2[nH]c3ccc(F)cc3c2nc2n1CCCS2 | -11 | i | 3 | -8 | -10 | -1 | -3 | -2
O=C(NCc1ccc2c(c1)OCO2)C1CCN(Cc2cnn(-c3ccccc3)c2-n2cccc2)CC1 | 4 | i | . | -7 | . | 3 | -4 | -6
Cc1ccccc1CN1[C@@H](Cc2ccccc2)COCCS1(=O)=O | . | i | -21 | -11 | 20 | -2 | -5 | .
O=C(CCn1c(=S)[nH]c2ccccc2c1=O)N1CCCCC1 | 7 | i | -19 | 16 | -6 | -6 | 0 | 6
Cc1[nH]c2ccccc2c1C(C[N+](=O)[O-])c1cccc(O)c1 (centres undefined) | 1 | i | . | . | 12 | 2 | 2 | 17
COc1ccc(C(O)P(=O)(OCc2ccccc2)c2ccc(N(C)C)cc2)cc1 (centres undefined) | -10 | i | 11 | -27 | -14 | 1 | -1 | -4
CC(C)(C)NC(=O)C[C@H]1C[C@H](C(=O)N2CCOCC2)[C@@]2(C)c3[nH]c4ccc(Cl)cc4c3CCN2C1=O | . | . | 5 | . | -18 | -3 | -3 | .
COC(=O)c1sccc1NC(=O)c1ccc(C(C)C)cc1 | -11 | i | -12 | 4 | 10 | -1 | 1 | 2
Cc1oc(-c2cccs2)nc1CN1CCN(CCC(C)C)C(CCO)C1 (centres undefined) | 4 | i | . | 2 | 6 | -5 | 2 | 4
CCOC(=O)C1=C(COC(=O)[C@H](C)NS(=O)(=O)c2ccccc2F)NC(=O)NC1C (some centres undefined) | . | . | -3 | -11 | -3 | 1 | 1 | .
COc1cc(CN2CCc3c([nH]c4ccccc34)C2)cc(OC)c1 | 1 | . | 4 | 17 | 4 | -9 | 0 | 5
N#CCCn1c(SCC(=O)N2CCN(S(=O)(=O)c3ccccc3)CC2)nc2ccccc21 | -13 | i | 6 | -8 | -1 | -4 | -3 | -3
CCCCn1c(=O)[nH]c(=O)c2c1nc(-c1ccc(OCCC)c(OCC)c1)n2C | -4 | i | -10 | -8 | 5 | 3 | 1 | 1
Cc1cc2ccccc2n1CCNC(=O)Cc1cccc2ccccc12 | 54 | i | -1 | 8 | -3 | 43* | 45* | 21 | eIF4H inh retest=4;PABP polyA inh retest=18
CC1(C)Cc2nc3sc(C(=O)NCCCO)c(N)c3cc2CO1 | 27 | i | . | -14 | -10 | 6 | 1 | 10
Cc1cccc[n+]1C1C(c2ccc([N+](=O)[O-])cc2)C(C#N)=C(C(=C=[N-])C#N)NC1(O)C1CC1 (centres undefined) | ? | i | . | -11 | 10 | 0 | 29 | 2
O=C(NC(=S)N(Cc1ccccc1)c1ccccn1)C1CCCCC1 | -2 | i | . | -13 | 0 | 1 | 3 | -10
CC1CCCN(CCCNC(=O)c2ccc(NC(=O)C3=CSCCO3)cc2)C1 (centres undefined) | -5 | i | -8 | -18 | 0 | -1 | 0 | 4

A portion of the library (hit frequency here may not be typical).
